Vaccinia inh = blocks a specific stage of Vaccinia orthopoxvirus infection; 89,000 tested, 0.01% active; AID 1053133; activity change (mCherry), % (concentration not given with the values); Vaccinia-infected cells, mCherry/Venus stage reporter fluorescence; stronger effect = lower value; some inactives read as strong as hits;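 active means mCherry past -33% and 40 or more points under the early reporter, replicates agreeing; inconclusive means past -33% without that gap or agreement; tested in A549 cells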;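 further: scaled between vehicle wells and reference inhibitor wells; 23 nL library stock went into each well; one replicate is shown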
Vaccinia inh Venus = recorded beside Vaccinia inh, whose call it bears; activity change (Venus), %; measured here: Venus reporter, other viral stage;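 negative = less Venus signal; first of two replicates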
* = called active by the depositor; ? = inconclusive; . = not tested or not shown.

Preview (four entries):
Structure	Vaccinia inh	Vaccinia inh Venus
C[C@@H]1CN([C@H](C)CO)C(=O)CCCn2nncc2CO[C@H]1CN(C)Cc1ccccc1C(=O)O	6	7
C[C@H](CO)N1C[C@H](C)[C@@H](CN(C)C(=O)Nc2ccc(F)cc2)Oc2c(NS(=O)(=O)c3cn(C)cn3)cccc2C1=O	10	26
O=C(NC1Cc2ccccc2C1)[C@H]1[C@H](CO)[C@H]2Cn3c(cccc3=O)[C@H]2N1C(=O)C1CCC1	19	7
C[C@H](NC(=O)C[C@@H]1CC[C@@H](NS(=O)(=O)c2cccc(F)c2)[C@@H](CO)O1)c1ccccc1	10	4

Results, previewed entries included:
Structure	Vaccinia inh	Vaccinia inh Venus
C[C@@H]1CN([C@H](C)CO)C(=O)CCCn2nncc2CO[C@H]1CN(C)Cc1ccccc1C(=O)O	6	7
C[C@H](CO)N1C[C@H](C)[C@@H](CN(C)C(=O)Nc2ccc(F)cc2)Oc2c(NS(=O)(=O)c3cn(C)cn3)cccc2C1=O	10	26
O=C(NC1Cc2ccccc2C1)[C@H]1[C@H](CO)[C@H]2Cn3c(cccc3=O)[C@H]2N1C(=O)C1CCC1	19	7
C[C@H](NC(=O)C[C@@H]1CC[C@@H](NS(=O)(=O)c2cccc(F)c2)[C@@H](CO)O1)c1ccccc1	10	4
C[C@H]1CN([C@@H](C)CO)C(=O)c2cc(Br)cnc2O[C@H]1CN(C)C(=O)C1CCC1	30	18
Cc1ccc(S(=O)(=O)N[C@@H]2CC[C@@H](CCn3cc(C(C)C)nn3)O[C@@H]2CO)cc1	3	0
CC(=O)N(C)C[C@H]1Oc2ncc(-c3ccc(C(=O)N(C)C)cc3)cc2C(=O)N([C@@H](C)CO)C[C@H]1C	21	12
O=C(NCC[C@@H]1CC[C@H](NC(=O)C2CCC2)[C@H](CO)O1)c1ccc(F)cc1	7	5
O=C(C[C@@H]1CC[C@H](NC(=O)CN2CCOCC2)[C@@H](CO)O1)NCCc1ccccc1	19	17
CCCNC(=O)[C@H]1[C@H](CO)[C@H]2Cn3c(ccc(-c4cccc(F)c4)c3=O)[C@@H]1N2CCC	0	5
Cc1ccccc1S(=O)(=O)N[C@H]1CC[C@@H](CCn2cc(Cc3ccccc3)nn2)O[C@H]1CO	12	14
COc1ccc2c3c(n(C)c2c1)[C@@H](CO)N(Cc1ccccc1Cl)CC31CCN(C(C)=O)CC1	-8	-15
C/C=C/c1ccc2c(c1)O[C@H](CN(C)C(=O)C1CCCCC1)[C@H](C)CN([C@@H](C)CO)S2(=O)=O	-33	-33
O=C(C[C@@H]1C=C[C@H](NC(=O)c2ccc3c(c2)OCO3)[C@@H](CO)O1)NCc1ccc(Oc2ccccc2)cc1	0	6
C[C@H](CO)N1C[C@H](C)[C@@H](CN(C)S(=O)(=O)c2cn(C)cn2)Oc2c(NS(=O)(=O)c3cn(C)cn3)cccc2C1=O	39	20
COc1cccc(S(=O)(=O)N(C)C[C@H]2Oc3ncc(C#CCN(C)C)cc3C(=O)N([C@@H](C)CO)C[C@@H]2C)c1	-26	-21
COc1ccc(CN(C)C[C@@H]2Oc3c(NS(=O)(=O)c4ccccc4)cccc3C(=O)N([C@@H](C)CO)C[C@H]2C)cc1	9	5
O=C(NCC[C@H]1CC[C@@H](NC(=O)C2CCCCC2)[C@H](CO)O1)c1ccc(F)cc1	-11	2
N#C[C@H]1[C@H](c2ccccc2)[C@H](CO)N1C(=O)c1ccc2c(c1)OCO2	0	-1
CC(C)C#Cc1cnc2c(c1)C(=O)N([C@@H](C)CO)C[C@@H](C)[C@@H](CN(C)C(=O)Nc1cccc(F)c1)O2	4	-8
CC=Cc1ccc2n(c1=O)C[C@H]1[C@H](CO)[C@@H](C(=O)NCc3ccccn3)[C@@H]2N1CCC (mixture of isomers)	8	7
C[C@H](CO)N1C[C@H](C)[C@@H](CN(C)S(=O)(=O)c2ccc(F)cc2)Oc2cc(C#Cc3ccc(F)cc3)ccc2S1(=O)=O	-11	-16
CCCNC(=O)N1C[C@H](C)[C@@H](OC)CN(C)C(=O)c2ccc(NC(C)=O)cc2OC[C@@H]1C	9	9
COc1cccc(NC(=O)N2CC(=O)N3[C@H](CO)[C@H](c4ccc(C#CC5CCCC5)cc4)[C@H]3C2)c1	?	.
O=C(C[C@H]1C[C@H]2c3cc(NS(=O)(=O)c4ccccc4)ccc3O[C@H]2[C@H](CO)O1)NCC1CC1	5	2
COc1ccc2c3c([nH]c2c1)[C@@H](CO)N(Cc1ccncc1)CC31CCN(C(=O)c2cccnc2)CC1	28	14
C[C@H](CO)N1C[C@H](C)[C@H](CN(C)C(=O)C2CCOCC2)Oc2cc(-c3ccc(F)cc3)ccc2S1(=O)=O	-9	-11
CN1c2ccc(Br)cc2[C@@H]2[C@@H](CCN2S(=O)(=O)c2ccccc2F)[C@H]1CO	3	3
C[C@H]1CCCCO[C@H](CN(C)C(=O)NC2CCCCC2)[C@@H](C)CN([C@@H](C)CO)C(=O)c2cc(NC(=O)CCC(F)(F)F)ccc2O1	-24	-16
O=C(C[C@@H]1CC[C@H]2[C@@H](COC[C@H](O)CN2Cc2ccc(C(F)(F)F)cc2)O1)NCCc1ccccc1	?	.
COc1ccc(-c2ccc([C@@H]3[C@@H](CO)N4CCCCN(C(=O)Cc5ccncc5)C[C@@H]34)cc2)cc1	-6	-4
CC(=O)Nc1ccc2c(c1)C(=O)N(C)[C@@H]1CC[C@H](CC(=O)NCc3ccc(Cl)cc3)O[C@@H]1CO2	-7	-11
COc1ccc(S(=O)(=O)Nc2ccc3c(c2)C(=O)N([C@H](C)CO)C[C@@H](C)[C@H](CN(C)C(=O)Nc2ccc(C(F)(F)F)cc2)OCCCC[C@@H](C)O3)cc1	-18	-12
C[C@H](CO)N1C[C@H](C)[C@H](CN(C)C(=O)CCC(F)(F)F)OCCCC[C@H](C)Oc2ccc(NC(=O)Cc3ccccc3)cc2C1=O	-15	-6
Cc1ccc(S(=O)(=O)N2C[C@H](O)COC[C@H]3O[C@H](CC(=O)NCc4ccc(Cl)c(Cl)c4)CC[C@@H]32)cc1	?	.
Cc1noc(C)c1NC(=O)N(C)C[C@@H]1OCc2ccccc2-c2ccccc2C(=O)N([C@H](C)CO)C[C@@H]1C	23	14
COCC#Cc1cnc2c(c1)C(=O)N([C@H](C)CO)C[C@H](C)[C@H](CN(C)S(C)(=O)=O)O2	15	6
CS(=O)(=O)Nc1ccc2c(c1)[C@@H]1C[C@@H](CC(=O)NCC(F)(F)F)O[C@@H](CO)[C@@H]1O2	5	6
O=C(C1CCCCC1)N1CC2(C1)[C@H](c1ccccc1)[C@@H](CO)N2C(=O)NC1CCCC1	-7	-2
CN(C)C(=O)C[C@@H]1C=C[C@@H](NC(=O)C2CC2)[C@@H](CO)O1	-2	-7
COc1cccc(-c2ccc([C@@H]3[C@H]4CN(CC5CC5)CCCCN4[C@H]3CO)cc2)c1	-19	-18
CN(C)Cc1cn(CC[C@H]2CC[C@@H](NC(=O)Nc3ccccc3F)[C@@H](CO)O2)nn1	0	3
O=C(C1CC1)N1CC(=O)N2[C@H](C1)[C@@H](c1ccc(C#CCc3ccccc3)cc1)[C@@H]2CO	-7	-4
CCCN1C[C@H](C)[C@H](OC)CN(C)C(=O)c2cc(NC(=O)c3ccccc3F)ccc2OC[C@H]1C	17	9
c1ccc(CN2C[C@@H]3N[C@H](C2)C3c2ccc(-c3ccccc3)cc2)cc1 (stereo partly drawn)	?	.
CN1c2ccc(-c3cccc(F)c3)cc2[C@@H]2[C@@H](CCN2C(=O)C2CCOCC2)[C@@H]1CO	-33	-26
C[C@@H]1CN([C@H](C)CO)C(=O)CCCn2nncc2CO[C@H]1CN(C)C(=O)Nc1ccc(F)cc1	-9	-13
O=C1CN(S(=O)(=O)c2ccccc2)C[C@H]2[C@@H](c3ccc(C4=CCCC4)cc3)[C@@H](CO)N12	12	8
O=C(Nc1ccccc1)N1CC(=O)N2[C@@H](CO)[C@@H](c3ccc(C#CC4CCCCC4)cc3)[C@@H]2C1	-10	-5
CCCNC(=O)N[C@@H]1CC[C@@H](CC(=O)NCCc2ccccc2)O[C@@H]1CO	12	21
O=C(C[C@@H]1C=C[C@H](NC(=O)C2CCOCC2)[C@@H](CO)O1)Nc1ccccc1	-2	2
CCC(=O)Nc1ccc2c(c1)C(=O)N(C)C[C@@H](OC)[C@@H](C)CN(CCC(F)(F)F)[C@@H](C)CO2	4	-1
COc1ccc(S(=O)(=O)Nc2ccc3c(c2)CC(=O)N([C@@H](C)CO)C[C@@H](C)[C@@H](CN(C)C(=O)Nc2ccc4c(c2)OCO4)O3)cc1	10	12
O=C(C[C@@H]1C[C@@H]2c3cc(NC(=O)Cc4ccncc4)ccc3O[C@@H]2[C@H](CO)O1)NCc1ccncc1	16	8
C[C@@H]1CCCCO[C@H](CN(C)Cc2ccc(C(=O)O)cc2)[C@@H](C)CN([C@@H](C)CO)C(=O)c2cc(NC(=O)Nc3cccc4ccccc34)ccc2O1	27	13
C[C@@H]1CN([C@@H](C)CO)S(=O)(=O)c2ccc(C#CC3CCCCC3)cc2O[C@H]1CN(C)C	?	.
O=C(C[C@H]1C=C[C@@H](NS(=O)(=O)c2ccc(F)cc2)[C@@H](CO)O1)NCCN1CCCCC1	8	9
CCNC(=O)C[C@@H]1CC[C@@H]2[C@H](COC[C@H](O)CN2C(=O)C2CCOCC2)O1	3	5
C[C@H](CO)N1C[C@H](C)[C@H](CN(C)Cc2cccnc2)Oc2cc(C#CC3CCCC3)ccc2S1(=O)=O	-19	-20
C[C@@H]1CN([C@@H](C)CO)S(=O)(=O)c2ccc(C3=CCCC3)cc2O[C@H]1CN(C)C(=O)c1ccccc1	23	16

Some of the entries above, reformatted:
Each structure is followed by: Vaccinia inh | Vaccinia inh Venus
> c1ccc(CN2C[C@@H]3N[C@H](C2)C3c2ccc(-c3ccccc3)cc2)cc1 (stereo partly drawn)
→ ? | .
> CN1c2ccc(-c3cccc(F)c3)cc2[C@@H]2[C@@H](CCN2C(=O)C2CCOCC2)[C@@H]1CO
→ -33 | -26
> C[C@@H]1CN([C@H](C)CO)C(=O)CCCn2nncc2CO[C@H]1CN(C)C(=O)Nc1ccc(F)cc1
→ -9 | -13

Later entries
Structure	Vaccinia inh	Vaccinia inh Venus
C[C@H]1CN([C@@H](C)CO)S(=O)(=O)c2ccc(C#CCC3CCCC3)cc2O[C@@H]1CN(C)Cc1ccc(C(=O)O)cc1	-9	-19
COc1ccccc1NC(=O)N1C[C@@H](O)COC[C@H]2O[C@@H](CC(=O)NCCc3ccccc3)CC[C@@H]21	-17	-14
Cc1ccc(S(=O)(=O)N(C)C[C@H]2Oc3ccc(NC(=O)NC4CCCCC4)cc3C(=O)N([C@H](C)CO)C[C@@H]2C)cc1	-29	-25
C[C@H](CO)N1C[C@H](C)[C@@H](CN(C)C(=O)Nc2ccccc2)Oc2cc(-c3cccc(C(=O)N(C)C)c3)ccc2S1(=O)=O	-5	-7
CN(C)c1ccc2c(c1)[C@H]1C[C@H](CC(=O)NCc3cccc(F)c3)O[C@@H](CO)[C@H]1O2	9	20
CO[C@H]1CN(C)C(=O)c2cc(NC(=O)c3cnccn3)ccc2OC[C@@H](C)NC[C@@H]1C	19	11
COCC#Cc1cnc2c(c1)C(=O)N([C@H](C)CO)C[C@H](C)[C@H](CN(C)C(=O)CN1CCOCC1)O2	4	3
C[C@H](CO)N1C[C@H](C)[C@H](CN(C)S(C)(=O)=O)Oc2ncc(C#CC3CC3)cc2C1=O	23	20
C[C@@H]1CCCCO[C@@H](CN(C)Cc2ccc(C(=O)O)cc2)[C@@H](C)CN([C@H](C)CO)C(=O)c2cc(NC(=O)c3ccncc3)ccc2O1	28	9
C[C@H]1C=C(C(=O)Nc2ccccc2)O[C@@H](OCc2ccc(CO)cc2)C1	4	6
CN1C(=O)c2cc(NC(=O)c3cccc(F)c3)ccc2OC[C@H]2O[C@H](CC(=O)NCC3CC3)CC[C@@H]21	6	8
Cc1noc(C)c1NC(=O)N(C)C[C@@H]1Oc2ccc(NC(=O)c3ccncc3)cc2CC(=O)N([C@H](C)CO)C[C@H]1C	9	0
COCC#Cc1ccc2c(c1)O[C@H](CN(C)C(=O)NC(C)C)[C@@H](C)CN([C@H](C)CO)S2(=O)=O	7	4
Cc1ccc(S(=O)(=O)Nc2ccc3c(c2)C(=O)N([C@@H](C)CO)C[C@H](C)[C@H](CN(C)C(=O)CCC(F)(F)F)OCCCC[C@@H](C)O3)cc1	12	-5
COC(=O)c1cn(CCNC(=O)[C@H](Cc2ccccc2)NS(=O)(=O)c2ccc(C)cc2)nn1	20	15
C[C@H](CO)N1C[C@H](C)[C@H](CN(C)C(=O)Cc2ccccc2)Oc2ncc(-c3cncnc3)cc2C1=O	2	10
C[C@@H]1CN([C@H](C)CO)S(=O)(=O)c2ccc(-c3ccncc3)cc2O[C@@H]1CN(C)CC1CC1	10	7
Cc1noc(C)c1NC(=O)Nc1ccc2c(c1)C(=O)N([C@H](C)CO)C[C@@H](C)[C@H](CN(C)Cc1ccncc1)OCCCC[C@H](C)O2	24	9
CN1CCN(C(=O)C[C@H]2CC[C@@H]3[C@H](COc4ccc(NC(=O)c5cccs5)cc4C(=O)N3C)O2)CC1	6	5
C[C@@H]1CN([C@H](C)CO)C(=O)c2cc(C#CC3CCCCC3)cnc2O[C@@H]1CN(C)C(=O)c1ccncc1	-11	-17
Cn1cnc(S(=O)(=O)N[C@H]2CC[C@H](CC(=O)Nc3ccc(-c4ccccc4)cc3)O[C@H]2CO)c1	7	5
CN1C[C@H](O)COC[C@H]2O[C@@H](CC(=O)NC3CCCC3)CC[C@@H]21	8	6

Assay outcomes (PubChem)

Only part of the results is shown; count on the stated rates, not on these rows.
